Source: PubChem BioAssay
Mtb bLac sens: beta-lactam sensitization of Mtb H37Rv | M. tuberculosis H37Rv growth with meropenem, percent inhibition; hits of this screen are not shown here | inhibition, % at 25 µM | 330,000 compounds, 0.27% hits;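 active = about 74% or more and at least 40 points above the plate without the antibiotic, then above 30% in a dose series; inconclusive = first-round hits that could not be retested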;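 also: growth measured after seven days incubation then overnight dye step; 0% = bacteria only wells and 100% = bacteria with antibiotic; twin plates without the antibiotic show which effects depend on it; some results filed as inactive read as strong as hits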
RecA splice inh: blocks M. tuberculosis RecA intein splicing. 290,000 compounds, 0.75% hits. cell-free RecA intein splicing, fluorescence. inhibition, %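 (about 9 µM by stock and volumes)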. P9WHJ3; in the data active = inhibition above about 30%; inconclusive = no clear call, values can overlap the other calls;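 also: 0% = vehicle wells and 100% = reference inhibitor control wells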
Target sequence (P9WHJ3 whole entry, looked up, canonical isoform): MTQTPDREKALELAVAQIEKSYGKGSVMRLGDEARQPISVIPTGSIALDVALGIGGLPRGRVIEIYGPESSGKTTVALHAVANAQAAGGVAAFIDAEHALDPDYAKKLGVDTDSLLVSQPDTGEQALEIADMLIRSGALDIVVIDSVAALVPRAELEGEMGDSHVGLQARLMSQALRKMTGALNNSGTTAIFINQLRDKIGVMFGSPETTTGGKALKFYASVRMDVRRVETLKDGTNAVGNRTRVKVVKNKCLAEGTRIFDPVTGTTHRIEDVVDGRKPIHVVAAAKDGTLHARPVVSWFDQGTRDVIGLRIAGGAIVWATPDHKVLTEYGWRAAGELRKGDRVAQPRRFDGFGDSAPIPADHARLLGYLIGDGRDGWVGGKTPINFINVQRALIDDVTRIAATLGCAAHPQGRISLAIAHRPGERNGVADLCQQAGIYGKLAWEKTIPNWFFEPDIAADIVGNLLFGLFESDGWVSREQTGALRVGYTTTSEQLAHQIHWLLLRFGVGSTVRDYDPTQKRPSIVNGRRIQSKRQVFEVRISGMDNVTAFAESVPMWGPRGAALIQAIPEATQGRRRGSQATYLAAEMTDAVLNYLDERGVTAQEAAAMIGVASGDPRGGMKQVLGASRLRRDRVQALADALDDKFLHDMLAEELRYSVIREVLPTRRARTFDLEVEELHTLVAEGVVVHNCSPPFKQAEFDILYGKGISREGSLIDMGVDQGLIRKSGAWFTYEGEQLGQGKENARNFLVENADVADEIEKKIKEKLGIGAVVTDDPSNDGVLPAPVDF
Mtb H37Rv: M. tuberculosis H37Rv growth inhibitors, H37Rv strain (AID 1626); inhibition, % at 10 µM; hits with a dose series show IC50 in µM; 220,000 compounds, 0.95% hits; M. tuberculosis H37Rv growth inhibition; higher % means a stronger effect;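 active = confirmed in a dose series; inconclusive = inhibition above 80% but not taken into the dose series; inactive = below 80% or under 30% at every dose of the series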;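 also: bacteria incubated seven days before Alamar blue readout; 0% = bacteria only wells and 100% = bacteria with antibiotic wells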
YopH inh: inhibitors of Yersinia enterocolitica YopH tyrosine phosphatase | fluorescence Ex485/Em525 | inhibition, %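 (about 10 µM by stock and volumes)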 | 140,000 compounds, 0.16% hits;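 active = inhibition of 50% or more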;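 also: controls were vehicle for no effect and minimum signal wells for full effect; inactives centre near -20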
Arbovirus inh: arbovirus infection inhibition; inhibition, % at 10 µM; arbovirus infection cell-based antiviral screen; 200,000 compounds, 0.37% hits; AID 1251;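 active = inhibition from about 30%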;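 also: bluetongue infection of BSR cells; cell survival read as ATP light after 72 h; 0% = infected wells without compound and 100% = uninfected wells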
Arbovirus inh repeat: second read-out of Arbovirus inh, no call of its own (marks repeat the call); inhibition, %; measured here: 10K subset replicate screen; many hits read low in the repeat;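 first of two repeat runs on a subset; 0% = infected and 100% = uninfected wells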
* hit, by the source's call; u = inconclusive; x = not tested or not shown. The list is partial; the hit share may differ from the screen's.

SMILES	Mtb bLac sens	RecA splice inh	Mtb H37Rv	YopH inh	Arbovirus inh	others
Cc1c(NC(=O)c2cccs2)c(=O)n(-c2ccccc2)n1C	5	-2.8	-4%	x	10
Cc1occc1C(=O)NCCCCNC(=O)c1ccoc1C	-7	1.4	-10%	-15	0
O=C(CSc1nc2ccccc2n1Cc1ccc(Cl)cc1)N/N=C/c1ccc(C(=O)O)cc1	-8	-1.2	11%	x	-5
O=C(O)CCS(=O)(=O)Cc1cccc(Cl)c1	-4	x	-3%	-36	-4
Cc1noc(C)c1CSCC(=O)Nc1cc(C(F)(F)F)ccc1N1CCCCC1	-7	1.7	x	x	x
N#C/C(=C(/O)CCl)c1nc2c(s1)CCc1ccccc1-2	54	20	x	x	x
Cn1c(Cn2nnc3ccccc32)nnc1SCC(=O)Nc1ccc2c(c1)OCO2	-4	4.6	0%	-23	3
CC(C)CCNC(=O)C(=O)NC1CCCC1	5	x	-6%	-26	0
Cc1nnc(SCC(=O)N(C)c2ccccc2)n1Cc1ccccc1	-5	0.4	-2%	x	4
O=C(Nc1nccs1)c1sc2ccccc2c1Cl	100	-3.2	15µM*	-22	-10
CCOCCCNCc1cccc(OCc2ccc(F)cc2)c1	-3	-1.8	6%	-1	-15
CN(C(=O)C1CCC1C(=O)O)c1nc(-c2ccc(Cl)s2)cs1 (stereo unspecified)	4	-1.3	-9%	x	x
CC12CN3CC(C)(CN(C1)C3c1cccs1)C2=O (stereo unspecified)	-7	0.5	-7%	x	-1
CCN(Cc1ccccc1)C(c1ccc(C)cc1)c1nnnn1C(C)(C)C (stereo unspecified)	-7	1.1	-2%	7	1
COc1cc(/C=N/NC(=O)c2ccc(N3CCCC3=O)cc2)ccc1O	2	-3.9	x	x	x
CCn1c(SCC(=O)Nc2oc(-c3ccccc3)c(-c3ccccc3)c2C#N)nnc1-c1ccncc1	1	4.9	-5%	-11	-12
CC(C)(CC(=O)O)CC(=O)Nc1ccc2c(c1)ncn2CCc1ccccc1	2	2.0	x	x	x
Cc1ccc(S(=O)(=O)N(C(=O)c2ccncc2)c2ccc(OC(=O)c3ccncc3)c3ccccc23)c(C)c1	24	98*	-1%	-3	-33
CCCc1cc(=O)[nH]c(SCc2cccnc2)n1	-17	2.5	-3%	-51	7
COc1cccc(CN2C(=O)N(C(C)C)C(N(O)C(=O)NC(C)C)C2(C)C)c1OC (stereo unspecified)	-14	-4.9	-11%	15	10
Cc1ccc(N(CC(=O)NCCSc2ccccn2)S(=O)(=O)c2ccc(F)cc2)cc1	-5	3.7	-5%	x	-10
O=C(O)c1ccccc1NS(=O)(=O)c1cccc2nsnc12	5	0.7	x	x	x
COCCNC(=O)C1CC2Cn3c(nc4cc(C)c(C)cc43)C2N1C (stereo unspecified)	-7	-2.7	-5%	x	x
Cn1c(=O)cc(SCC(=O)N2CCCC2)c2ccccc21	3	-0.2	x	-27	-2
S=C1NCN(Cc2ccco2)CN1c1cccc2ccccc12	-11	-0.4	-8%	x	x

Continued:
SMILES	Mtb bLac sens	RecA splice inh	Mtb H37Rv	YopH inh	Arbovirus inh	others
CC(=O)NC(Cc1ccc(F)cc1)C(=O)NC1CCN(C(=O)Nc2ccccc2C)CC1 (stereo unspecified)	0	-0.6	x	x	x
CCN(CC)CCN(Cc1cc2cc(C)cc(C)c2[nH]c1=O)C(=S)NCc1ccco1	-1	-0.2	-3%	-9	2
Cc1ccccc1N1C(=O)NC(=O)/C(=C/c2ccc(N3CCOCC3)o2)C1=O	8	-2.0	0%	x	x
CCCOc1ccc(C2C(=O)N(C3CCCCC3)CC(=O)N2CCCOCC)cc1OC (stereo unspecified)	27	-2.2	x	-17	-1
CC1N=C2c3ccccc3N=C(SCc3cc(=O)n4cc(Cl)ccc4n3)N2C1=O (stereo unspecified)	-2	2.6	-12%	-19	4
CC1CCN(c2ccccc2NC(=O)c2cc3ccccc3o2)CC1	82	3.4	x	x	x
Cc1nc(CC(=O)c2c(C)cc(O)cc2O)cs1	8	0.6	-4%	-44	3	Arbovirus inh repeat=2
COCCN(C(=O)COC(=O)c1cccnc1SC)c1c(N)n(Cc2ccccc2)c(=O)[nH]c1=O	-6	-2.1	x	x	x
CN(Cc1c(F)cccc1Cl)C(=O)CCc1c[nH]c2ccccc12	0	4.9	x	x	x
O=C(/C=C/c1cccc(OCc2ccccc2)c1)c1cccnc1	100	3.5	-1%	-30	-7
CC(C)CCOc1ccc(/C=N/N2C(=O)CSC2=S)cc1	-4	-5.7	x	x	x
O=S(=O)(c1cccc(-c2nnc(SC(F)F)n2-c2ccccc2)c1)N1CCCCC1	-12	-5.1	-6%	-19	0
Nc1c(C(=O)Nc2ccc3c(c2)OCCO3)nnn1Cc1ccc(Cl)cc1	0	2.0	x	x	x
Cn1cc(CN2CCc3c([nH]c4ccccc34)C2C2CCCCC2)cn1 (stereo unspecified)	-1	-3.5	0%	x	4
CCc1ccc(NS(=O)(=O)c2c(C)noc2C)cc1	46	0.1	x	x	x
CCOC(=O)c1sc2nc(C)nc(N3CCCCC3C)c2c1C (stereo unspecified)	7	19	x	x	-7
CCC(=O)c1cc(F)c(N2CCN(CC)CC2)cc1C	-8	1.7	-6%	-12	-7
O=C(Nc1cccc(Cl)c1)N1CCN(c2ncccn2)CC1	-22	x	-4%	6	5
CC(C)Oc1ccc(C2CNC(=O)C2)cc1 (stereo unspecified)	-2	-1.3	1%	-10	0	Arbovirus inh repeat=-1
CC(=O)c1cccc(NC(=O)C2CCN(S(C)(=O)=O)CC2)c1	0	-4.8	-4%	-27	1
COCc1ccc(CN2CCCC(CCC(=O)NCc3cccc(OC)c3)C2)o1 (stereo unspecified)	4	1.5	-3%	x	0
c1ccc(N2OCC3Cn4c(nc5ccccc54)C32)cc1 (stereo unspecified)	-4	0.3	0%	x	x
CCn1nccc1C(=O)Nc1nc2ccccc2n1CCN1CCCCC1	-3	-1.7	-5%	-16	-29
CCN1C(=O)c2ccccc2S(=O)c2ccc(C(=O)NCc3ccc(OC)cc3)cc21 (stereo unspecified)	2	2.8	x	x	x
CSCCC1COC(c2cccs2)=N1 (stereo unspecified)	-9	-2.2	-1%	x	1

Next section:
SMILES	Mtb bLac sens	RecA splice inh	Mtb H37Rv	YopH inh	Arbovirus inh	others
COc1ccc2[nH]c3c(=O)n(Cc4ccco4)cnc3c2c1	5	2.1	4%	-32	7
COc1cccc(-c2nc(NCc3ccco3)c3ccccc3n2)c1O	-3	1.0	-5%	-30	x
O=S(=O)(c1ccccc1)N1CCn2c(nc3ccccc32)C1	3	0.2	-3%	-54	12
Cc1onc(-c2ccccc2)c1C(=O)/C=C/N(C)C	-5	0.7	-12%	x	x
COc1ccc(N(CC(=O)NCc2ccc(C)cc2)S(=O)(=O)c2c(C)noc2C)cc1	-6	-1.5	x	x	x
COc1cccc(C(=O)CSc2nnc(-c3cc(OC)c(OC)c(OC)c3)o2)c1	7	-6.7	-4%	-2	4
CCc1nnc(NS(=O)(=O)c2ccc(NC(=O)c3cc4ccccc4oc3=O)cc2)s1	3	-3.4	61%	-14	13
Cc1ccccc1C(=O)NC[C@@H]1CCCN2CCCC[C@H]12	2	0.3	x	x	x
COC(=O)c1ccc(C(=O)OC)c(NC(=O)C(C)C)c1	2	-2.7	1%	x	3
CC(=O)C1=C(O)C(=O)N(CCO)C1c1ccccc1 (stereo unspecified)	0	-2.5	1%	x	-4
Cc1ccc(C(=O)N(Cc2ccccc2)C(C)(C)C)cc1C	4	1.1	4%	-14	-3
CCCCc1ccc(-c2csc(/C(C#N)=C/c3ccc(C)o3)n2)cc1	-2	2.7	-3%	-23	7
COc1ccc(S(=O)(=O)N(C)c2ccc(C(=O)N3CCCC3)cc2)cc1OC	4	-0.8	x	x	x
CSc1ncccc1C(=O)NCc1ccc(C)cc1	12	-0.8	17%	4	6
CC1CCN(c2ccc3nnc(CCC(=O)N4CCN(c5ccc(F)cc5)CC4)n3n2)CC1	34	-1.7	x	x	x
COc1cccc(CNC(=O)C2CCN(S(=O)(=O)c3cnc[nH]3)CC2)c1	1	0.2	15%	-20	1
O=C(CSc1nnc(-c2cccs2)n1-c1ccccc1)N1CCN(C(=O)c2ccco2)CC1	x	x	-1%	-34	10
CC(C)n1cc(CN2CCC(Oc3ccc(C(=O)N4CCCCC4)cc3)CC2)cn1	-2	0.2	x	x	x
CCc1cc(=O)oc2cc(OCC(=O)O)c(Cl)cc12	-2	-4.3	-6%	16	1
CCCNC(=O)COC(=O)c1ccccc1OCC(=O)Nc1ccc(Br)cc1	9	0.3	1%	-25	-12
Cc1cc(C)cc(NC(=O)CC23CC4CC(C2)CC(n2nnc(C)n2)(C4)C3)c1	-2	3.2	3%	-5	-11
COC(=O)c1ccccc1NC(=O)c1cc(C)no1	-2	0.1	x	x	x
S=C(Nc1ccc(Cl)cc1Cl)N1CCOCC1	0	-3.6	-6%	-8	-4
O=C(c1ccc([N+](=O)[O-])cc1)N(Cc1ccccc1)c1ccccn1	3	4.3	2%	x	4
CC(=O)NNC(=S)NC(=O)c1ccc(C)cc1	81	0.4	u	x	1
CCN(CC)S(=O)(=O)c1cc(C)c(C)cc1OCC(=O)NC1CCCC1	-12	7.7	x	x	x
